From PubChem
HIV Env fusion – HIV envelope-mediated fusion inhibition | HeLa-JRFL Env/CEM21 cell fusion, luciferase | inhibition, % at 12.3 µM | hit rate 1.1% among 360,000 | AID 651610;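 active = mean replicate inhibition score of at least 50 and every replicate individually at or above 50; inconclusive = only one of the two criteria met; inactive = mean below 50 and not all replicates reaching 50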;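 note: 0% = plate neutral controls and 100% = maraviroc near 300 nM; one replicate is shown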
PABP FP inh – PABP-poly(A) binding inhibition. PABP-poly(A) RNA binding, fluorescence polarization. inhibition, % at 35 µM. hit rate 1% among 290,000;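 active = 50% or more with normal probe brightness, or confirmed in later tests; inconclusive = above 50% with abnormal brightness, or retests that disagree; inactive = below 50% or failed in later tests; about a fifth of its hits are not listed in these tables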;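 note: calls also rest on retests at 20 µM and on dose response follow-up; controls were probe without protein and protein plus probe with vehicle; some compounds called inactive have numbers as strong as hits; many hits fall short of the cut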
Target sequence (P11940 whole entry, looked up): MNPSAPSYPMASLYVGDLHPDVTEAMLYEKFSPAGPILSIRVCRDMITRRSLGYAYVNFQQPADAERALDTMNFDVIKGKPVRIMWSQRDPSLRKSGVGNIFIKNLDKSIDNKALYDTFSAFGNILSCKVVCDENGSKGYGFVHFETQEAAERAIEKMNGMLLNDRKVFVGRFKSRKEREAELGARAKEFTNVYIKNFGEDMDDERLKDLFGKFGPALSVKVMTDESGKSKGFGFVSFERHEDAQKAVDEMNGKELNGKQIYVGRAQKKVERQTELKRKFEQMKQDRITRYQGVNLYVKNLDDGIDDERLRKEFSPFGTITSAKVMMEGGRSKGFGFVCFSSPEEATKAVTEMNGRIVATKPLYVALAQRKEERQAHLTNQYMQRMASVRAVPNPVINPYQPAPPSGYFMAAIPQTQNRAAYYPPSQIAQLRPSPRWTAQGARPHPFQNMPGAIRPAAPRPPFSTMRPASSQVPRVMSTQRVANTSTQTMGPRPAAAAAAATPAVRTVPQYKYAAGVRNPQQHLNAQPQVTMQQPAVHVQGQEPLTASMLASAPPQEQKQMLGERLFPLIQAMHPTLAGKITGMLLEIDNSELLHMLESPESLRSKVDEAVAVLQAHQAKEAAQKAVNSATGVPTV
UUG fidelity – alters start codon recognition fidelity in yeast | S. cerevisiae UUG-firefly luciferase reporter, luminescence/redox ratio | activity score, % at 18.7 µM | hit rate 0.13% among 350,000 | AID 602363;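 active = replicate mean at a twofold rise or more, about +100% in these data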;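 note: firefly luciferase made from a UUG start codon reports start codon fidelity; reporter light over untreated wells divided by growth signal over untreated wells; some hits fall short of that in this replicate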
MT1-MMP act inh – MT1-MMP (human) activation inhibition; GFP/RFP ratio change, % at 20 µM; AID 651647; HT1080 RFP-PRO-GFP cells, GFP/RFP ratio fluorescence, overnight; percent of plate control window, DMSO zero; hit rate 0.061% among 360,000; P50281;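 active = GFP/RFP ratio change of at least 30% with cell ATP level not reduced by more than half and red fluorescence within 50% of control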; note: strong numbers were not always called active
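Material: RFP-PRO-GFP reporter HT1080 cells. Dosing: single-point 20 µM compound, 1% DMSO. Controls: DMSO and RFP-L50D-GFP cell wells. Timing: cells overnight before dosing, compound overnight, 37 °C, 5% CO2. Measure: GFP/RFP fluorescence ratio.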
CSC inhib – blocks cancer stem cells; cancer stem cell-like cells viability, luminescence; AID 2717; inhibition, % at 7.5 µM; hit rate 1.1% among 300,000;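 active = mean at 75% or more and at least half the replicates too; inconclusive = mean and replicates disagree; tested in HMLE shEcad cells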;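 note: 0% = median of negative and 100% = median of positive control wells; the first replicate is given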
Rce1 inh – blocks yeast Ras-converting enzyme; hit rate 0.27% among 290,000; Q03530; calls only; yeast membranes, quenched prenylated peptide cleavage fluorescence; AID 2563;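 active = fall in fluorescence gain of 50% or more versus controls, with final raw signal at or below 3038400; inconclusive = same 50% fall but final raw signal above 3038400; inactive = fall in fluorescence gain under 50%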;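 note: plate controls were neutral control wells for no effect and wells lacking membranes for full effect; tested at 10 µM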
Target sequence (Q03530 whole entry, looked up): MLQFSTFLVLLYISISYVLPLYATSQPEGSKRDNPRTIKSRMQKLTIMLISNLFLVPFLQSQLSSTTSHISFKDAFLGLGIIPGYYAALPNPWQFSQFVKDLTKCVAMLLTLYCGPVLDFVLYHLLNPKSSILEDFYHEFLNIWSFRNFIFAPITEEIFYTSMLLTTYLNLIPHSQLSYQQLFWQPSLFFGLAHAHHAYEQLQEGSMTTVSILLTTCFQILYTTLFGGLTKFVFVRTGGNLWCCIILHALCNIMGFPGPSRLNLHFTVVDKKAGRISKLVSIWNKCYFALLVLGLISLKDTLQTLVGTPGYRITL
eIF4H FP inh – inhibitors of RNA binding by human eIF4H; Q15056; eIF4H fluorescence polarization binding assay; inhibition, % at 35 µM; hit rate 0.94% among 290,000; AID 2012;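 active = 50% or more with normal probe brightness, or confirmed in later tests; inconclusive = above 50% with abnormal brightness, or retests that disagree; inactive = below 50% or failed in later tests; about a fifth of its hits are not listed in these tables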;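 note: calls also rest on retests at 20 µM and on dose response follow-up; 0% = protein and probe with vehicle and 100% = probe without protein; strong numbers were not always called active; many hits fall short of the cut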
eIF4H FP inh retest – further read-out of eIF4H FP inh, marked with its call; inhibition, %; compound at 20 µM; confirmation average;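 mean of two retest wells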
PABP FP inh retest – second read-out of PABP FP inh, no call of its own (marks repeat the call); inhibition, %; compound at 20 µM; confirmation repeats;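 mean of two retest wells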
MT1-MMP act inh RFP – recorded beside MT1-MMP act inh, whose call it bears; RFP signal change, %; measured here: RFP expression control read;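 0 = vehicle wells; hits needed this value within 50% of zero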
* = called active by the depositor; i = inactive; ? = inconclusive; . = no result given.

SMILES	HIV Env fusion	PABP FP inh	UUG fidelity	MT1-MMP act inh	MT1-MMP act inh RFP	CSC inhib	Rce1 inh	eIF4H FP inh	others
Cc1ccc(-n2nc3c(=O)n(CC(=O)NCCc4ccccc4C)nc(C)c3c2C)cc1	10	21	-10	8	-25	7	i	3
COc1ccc(-c2cc(C(=O)NN)[nH]n2)cc1OC	-3	1	.	-2	-2	20	.	-1
CCCc1nnc(NC(=O)CNc2ccc(F)cc2)s1	.	2	-22	5	5	1	i	14
COc1ccc(C(CNC(=O)C(CC(C)C)NS(=O)(=O)c2ccc(C)cc2)N2CCOCC2)cc1 (stereo not drawn)	7	.	-6	1	1	-5	i	.
CCOc1ccc(N(CC(=O)NC2CCCCC2)S(=O)(=O)c2c(C)noc2C)cc1	15	15	1	-3	0	-13	i	8
O=C(C1CCCO1)N1CCN(Cc2c(O)ccc3ccccc23)CC1 (stereo not drawn)	1	-3	-6	1	12	-1	i	-10
CN(Cc1nccn1C)C(=O)c1ccc(OC2CCN(CCc3ccccc3)CC2)cc1	-21	2	3	2	5	-1	i	1
COc1cccc(-c2ccc(NC(=O)C3CCCN(Cc4nccn4C)C3)cc2)c1 (stereo not drawn)	33	3	-7	4	-3	-9	i	-5
Cc1ccc(OC(C)C(=O)Nc2ccccc2C(=O)NCc2cccnc2)cc1C (stereo not drawn)	29	6	-8	0	2	1	i	-10
CN1CCN(C(=S)NC(=O)/C=C/c2cccc3ccccc23)CC1	-49	0	-18	-5	-3	-17	i	2
CCN(C(=O)COC(=O)CCC(=O)c1cccs1)c1ccccc1	.	.	6	-1	5	-9	.	.
O=S(=O)(Nc1ncccn1)c1ccc(NC(=S)N2CCN(c3cccc(C(F)(F)F)c3)CC2)cc1	-1	-4	-15	0	-5	5	i	-12
CCOC(=O)NC(=O)COC(=O)Cc1cc(OC)c(OC)c(OC)c1	.	-4	-1	0	1	-3	.	-11
C1CCN(c2nc3nonc3nc2N2CCCCC2)CC1	.	14	.	-2	1	.	i	0
Cc1cc(N(CN2CCCC2=O)C(=O)c2ccc(F)cc2)no1	-34	1	-20	-9	1	-2	i	-5
Cc1cc(NCc2ccccc2)c2ccccc2n1	29	-7	-2	3	-12	-9	.	-7
O=C(O)Cn1nc2c3c(cccc3c1=O)-c1ccccc1-2	4	-10	-13	-4	0	-1	i	-6
CCOC(=O)C1CCN(C(c2cccnc2)c2c(NC(=O)c3ccco3)sc(C)c2C)CC1 (stereo not drawn)	?	15	-14	-5	-20	0	i	12
COc1cc(OC)cc(C(=O)N2CCN(C(=O)c3ccc(-c4ccccc4)cc3)CC2)c1	32	-2	.	-3	-6	-3	i	-2
Cc1ccc(C)c(S(=O)(=O)N2CCN(C(=O)Nc3ccccc3)CC2)c1	-10	-4	-10	-3	-4	-18	i	4
Cc1ccccc1NC(=O)CN1C(=O)CSc2ccccc21	1	4	-4	4	3	-3	i	11
COc1ccc(S(=O)(=O)NCc2ccc3c(c2)OCO3)cc1C	.	7	-3	6	2	-11	i	-1
Cc1cc(C)cc(C(=O)N(NC(=O)Nc2ccc(Cl)cc2)C(C)(C)C)c1	.	-7	-20	-15	-25	-4	.	-4
Cc1cc(=O)oc2c(C)c(OCC(=O)N3CCN(c4ccc(F)cc4)CC3)ccc12	4	.	-6	3	-1	-3	i	.

Ordered by number of heavy atoms (low to high): six of the compounds above
SMILES	HIV Env fusion	PABP FP inh	UUG fidelity	MT1-MMP act inh	MT1-MMP act inh RFP	CSC inhib	Rce1 inh	eIF4H FP inh	others
Cc1cc(NCc2ccccc2)c2ccccc2n1	29	-7	-2	3	-12	-9	.	-7
C1CCN(c2nc3nonc3nc2N2CCCCC2)CC1	.	14	.	-2	1	.	i	0
Cc1cc(N(CN2CCCC2=O)C(=O)c2ccc(F)cc2)no1	-34	1	-20	-9	1	-2	i	-5
Cc1ccc(C)c(S(=O)(=O)N2CCN(C(=O)Nc3ccccc3)CC2)c1	-10	-4	-10	-3	-4	-18	i	4
Cc1cc(=O)oc2c(C)c(OCC(=O)N3CCN(c4ccc(F)cc4)CC3)ccc12	4	.	-6	3	-1	-3	i	.
COc1cc(OC)cc(C(=O)N2CCN(C(=O)c3ccc(-c4ccccc4)cc3)CC2)c1	32	-2	.	-3	-6	-3	i	-2

The list continues:
SMILES	HIV Env fusion	PABP FP inh	UUG fidelity	MT1-MMP act inh	MT1-MMP act inh RFP	CSC inhib	Rce1 inh	eIF4H FP inh	others
CCOC(=O)C1C(=O)OC(C)(C)C1C(C)C(=O)c1ccc(C)cc1C (stereo not drawn)	11	1	.	-3	2	0	i	-1
O=C(O)c1ccc(NS(=O)(=O)c2ccc3c(c2)C(=O)c2ccccc2C3=O)cc1	-7	35	.	1	-2	10	.	0
CC(=O)Nc1cccc(NC(=O)C2CCN(C(=O)c3ccco3)CC2)c1	-17	3	-20	4	7	-2	i	-3
CC(C)=CC(=O)Nc1nnc(C(C)C)s1	.	-7	-27	2	2	-11	i	-8
Nc1ccccc1S(=O)(=O)NC1=NCCCCC1	2	-8	-5	.	.	7	i	1
CCN(CC#CCC(O)(c1ccccc1)c1ccccc1)C(C)C	-10	-3	-20	5	5	2	i	1
Cc1c(-c2ccco2)[n+](=O)c2c(n1[O-])CCCCC2	13	-11	-6	-2	1	-4	i	2
O=C1NC(c2ccccc2)=NC1(Nc1ccccn1)C(F)(F)F (stereo not drawn)	13	31	.	-2	1	2	i	2
CCC(=O)NC(Nc1nc(C)cs1)(C(=O)OC)C(F)(F)F (stereo not drawn)	-53	-5	-20	0	9	-11	i	0
C=CCOC(=O)C1C(=O)CC(C)(O)C(C(=O)OCC=C)C1c1ccc(OC)cc1 (stereo not drawn)	.	7	.	0	6	-6	i	-14
COc1ccc(N(CC(O)Cn2cnc3ccccc32)S(=O)(=O)c2ccc(C)cc2)cc1 (stereo not drawn)	-36	-4	-15	-3	0	2	i	-2
Cc1cccc(C(=O)Nc2nnc(-c3ccc(C(C)(C)C)cc3)s2)c1	-76	-3	-15	4	-1	1	i	-15
CCOC(=O)Cc1c(C)nc2cc(C)nn2c1C	.	-6	-11	5	4	-9	i	7
COc1cccc(-c2ccc(C#N)c(SCC(=O)NCCc3cccc(Cl)c3)n2)c1	18	-15	.	-1	-4	-13	.	-7
Cc1occc1-c1nnc(SCC(=O)N2CCCCC2)n1C	5	.	-24	3	1	.	.	.
Cc1cc(S(=O)(=O)NCc2cccnc2)ccc1-n1cnnn1	-41	-13	-15	3	2	-19	i	-2
Cc1cc(N2CCN(C(=O)c3ccco3)CC2)nc(-c2ccccc2)n1	-16	-1	-9	2	-1	-12	i	-8
Cc1cc(=O)oc2c(C)c(OC(C)C(=O)NCc3ccccn3)ccc12 (stereo not drawn)	-3	-5	44	4	6	-2	i	-13
O=C1Nc2c(c(=O)[nH]c(=O)n2-c2ccccc2)C1(Nc1ncccn1)C(F)(F)F (stereo not drawn)	.	-7	-17	4	8	4	i	-12
COCCn1c(SCC(=O)Nc2ccc(OC)cc2OC)nc2ccccc2c1=O	8	5	-10	0	2	-2	i	0
COc1ccccc1C1C(C(N)=O)=C(C)Nc2nc(-c3ccc(Cl)cc3)nn21 (stereo not drawn)	11	-2	-9	1	1	8	i	7
COc1ccc(C(=O)NC(=S)N2CCCc3ccccc32)cc1OC	-13	6	-7	6	-6	-5	i	7
S=c1[nH]nc(-c2ccc(Br)cc2)n1-c1ccc2c(c1)OCCO2	-30	3	.	1	-2	-1	i	2
Cc1onc(-c2ccccc2Cl)c1C(=O)NCc1cccnc1	-72	-5	-8	-2	-4	6	i	-10
COCCn1c(SCC(=O)Nc2cc(C)on2)nc2ccccc2c1=O	.	.	2	2	4	-9	.	.
CCCCS(=O)(=O)Nc1ccc(C(=O)NCC2CCCO2)cc1 (stereo not drawn)	.	-4	-17	-5	-1	-1	i	0
C[N+]1(CCOc2ccc([N+](=O)[O-])cc2)CCOCC1	.	49	-14	0	8	-13	i	18
Cc1c(C2=CCN(S(=O)(=O)c3ccc(Cl)cc3)CC2)c2ccccc2n1C	-21	4.5*	-31	11	10	-3	i	92*	eIF4H FP inh retest=100*;PABP FP inh retest=96*
O=C(O)c1ccc(CP(=O)(c2ccccc2)c2ccccc2)cc1	0	2	-10	2	1	-13	i	-5
CN(CCc1ccccn1)C(=O)c1nn2c(C(F)(F)F)cc(-c3ccco3)nc2c1Cl	.	0	-12	4	5	-15	i	0
CC(C)Oc1ccc(CN2CCC2(C)C(=O)Nc2cnc3ccccc3c2)cc1 (stereo not drawn)	8	.	-6	0	-3	.	.	.
COc1ccc(CCNC(=O)CCCn2nc(C)c([N+](=O)[O-])c2C)cc1OC	2	4	-10	0	-1	-5	i	1
O=C(Nc1nccs1)c1ccc(COc2c(F)c(F)cc(F)c2F)o1	-6	.	-15	0	-3	-6	.	.
Cc1ccc(C)c(OCc2nc3ccc(S(=O)(=O)Nc4c(C)n(C)n(-c5ccccc5)c4=O)cc3[nH]2)c1	24	-12	-13	5	-4	-4	i	8
O=C(CN1CCN(C(=O)c2ccco2)CC1)Nc1c2c(nc3c1CCC3)CCCC2	.	20	-7	3	3	.	.	5
O=C(Nc1cccc(S(=O)(=O)NC2=NCCCCC2)c1)c1cc(-c2ccncc2)nc2ccccc12	1	5	.	-1	-2	11	i	5
CCOC(=O)c1ccc(NC(=O)COc2cc3oc(=O)c(CC(C)O)c(C)c3cc2Cl)cc1 (stereo not drawn)	-7	6	-9	-3	-3	-9	i	-5
COc1ccc(NC(=O)CCCn2c(=O)[nH]c3ccccc3c2=O)cc1	-27	-3	-3	2	0	-5	i	-12
COCCCN=C1NN=C(c2cc(C)n(-c3ccccc3F)c2C)CS1	0	6	.	-1	-5	63	i	3
CCN(CC)CCNC(=O)CCCCCn1c(=O)[nH]c2cc(C(=O)OC)ccc2c1=O	-3	-6	-2	-8	-2	-17	i	-2
O=[N+]([O-])c1ccc(-c2cc(-c3ccc(Cl)cc3)n[nH]2)cc1	.	-11	-3	-1	-3	16	i	-17
CC(OC(=O)C1CC1)C(=O)Nc1cccc(S(=O)(=O)N2CCOCC2)c1 (stereo not drawn)	-1	.	-21	0	5	-13	.	.
O=C(CCNS(=O)(=O)c1ccc(Br)s1)N1CCN(c2ccccc2)CC1	.	-2	-13	-1	-2	.	.	5
C=CCN1CC(c2nc3ccccc3n2Cc2cccc3ccccc23)CC1=O (stereo not drawn)	-25	-2	4	-3	-11	-12	.	-12
Cc1cc(CN2CCCC(C(=O)Nc3cccc(-n4cccn4)c3)C2)cc(C)c1O (stereo not drawn)	7	-10	-14	5	-11	-5	i	-16
COC(=O)Oc1ccc(/C=N/NC(=O)CN(c2ccccc2Br)S(C)(=O)=O)cc1OC	-5	.	4	1	1	4	i	.
Cc1ccc(/C=C/C(=O)O)cc1S(=O)(=O)N1CCCCC1	-5	2	-6	-1	2	-3	i	5
CCOCCCNCc1ccc(OC)c(OC)c1	18	-3	-2	-4	2	-5	i	-7
O=C(c1ccc(=O)[nH]c1)N1CCN(S(=O)(=O)c2ccc(Cl)cc2)CC1	-4	-4	-9	4	3	-6	i	-8
CCOC(=O)CCCCCN1C(=O)c2cccc3cccc(c23)C1=O	-5	-4	-16	-1	0	14	i	10
CCCCN1C(=O)C2C(C(=O)Nc3cccc(OC)c3)C3C=CC2(O3)C1C(=O)NC1CCCCC1C (stereo not drawn)	-9	3	-10	3	2	-7	i	-2

Not all compounds are listed; rates above refer to the full screens.
